Bioassay records as filed in PubChem.
CBX7 inh – CBX7 chromodomain binding inhibitors, primary screen, biochemical, AlphaScreen; normalised signal (fraction of DMSO) (no concentration beside the values); Chromobox protein homolog 7 (Homo sapiens), O95931; 1.1% of 66,000 active; AlphaScreen His6-CBX7 / biotin-H3K27me3 peptide binding; stronger effect = lower value; AID 1224903, 2016; in the data active = normalised signal below about 0.5;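 note: 100 nL library stock added to about 20 µL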
Target sequence (O95931 whole entry, looked up): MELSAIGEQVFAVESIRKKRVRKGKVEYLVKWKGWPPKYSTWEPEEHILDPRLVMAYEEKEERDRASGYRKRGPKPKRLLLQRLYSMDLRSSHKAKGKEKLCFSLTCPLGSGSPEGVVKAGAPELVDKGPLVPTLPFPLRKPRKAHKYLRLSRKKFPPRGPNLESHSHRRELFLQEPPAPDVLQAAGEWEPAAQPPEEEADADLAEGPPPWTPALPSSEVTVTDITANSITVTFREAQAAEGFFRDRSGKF
CBX7 inh z-score – recorded beside CBX7 inh, whose call it bears; z-score; measured here: z-score of CBX7 signal; some inactives read as strong as hits; reference of the scale not given here;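 same signal on another scale; lower means less binding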
The depositor's hits bear a star; & = joins results of further samples.

SMILES	CBX7 inh	CBX7 inh z-score
CCCc1cc(=O)[nH]c(SCC(=O)Nc2cccc(C(F)(F)F)c2)n1	0.97	-0.64
Cc1nc2c(-c3ccc(F)cc3)c(C)nn2c(C)c1CCC(=O)Nc1cccc(F)c1	1.1	2.1
Cc1cc(C)cc(C(=O)Nc2cc(-c3nc4ncccc4o3)ccc2C)c1	1.2	3.7
CCc1nc(SCc2ccccc2)c(C#N)c2c1CCCC2	1.6	1.3
COc1ccc(CCNC(=O)C2=CCN(S(=O)(=O)c3ccc(F)cc3)CC2)cc1OC	0.97	-1.3
O=C(NCCCN1CCOCC1)c1cc(-c2ccc(F)cc2)on1	0.99	-0.39
CC(C)c1ccc(NC(=O)C(=O)NCCCN2CCOCC2)cc1	0.89	-1.3
Cc1cc(C)cc(-n2ccnc2SCC(=O)Nc2ccc3c(c2)OCCO3)c1	0.65	-13
CCCCN(C)CCNC(=O)Cn1nc(-c2ccc(Cl)cc2)ccc1=O	1	0.24
Cc1ccc2c(c1)c1c3n2CCN(CC(O)CN2CCCCCC2)C3CCC1 (configuration not stated)	0.87	-1.4
CCOC(=O)c1c(CN2CCCC2)n(-c2ccccc2)c2cc(Br)c(OC)cc12	1.1	0.83
O=C1CC(N2CCN(c3ncccn3)CC2)C(=O)N1CCc1ccccc1 (configuration not stated)	0.97	-0.36
Cc1cc(C)c2nc(Nc3nc(C)c(C)c(=O)[nH]3)nc(C)c2c1	1	0.1
CCC(=O)Nc1ccc(Br)cc1-c1nnc(SC)[nH]c1=O	1	1.7
O=C(NCCCN1CCOCC1)C1CCC(=O)N1Cc1ccccc1Cl (configuration not stated)	0.99	-0.28
Cc1cc2cc(CCNC(=O)c3c(-c4ccccc4Cl)noc3C)c(=O)[nH]c2cc1C	1	1.8
Nc1c(C(=O)c2ccc(Br)cc2)sc2nc(-c3ccccn3)ccc12	1.2	1.4
COc1cccc(-c2cc(C(F)(F)F)nc(NC(C)c3ccccc3)n2)c1 (configuration not stated)	1.4	21
CCOC(=O)c1cnc2c(OC)cccc2c1N1CC(C)CC(C)C1 (configuration not stated)	0.73	-0.3
COc1ccc(OCC(=O)Nc2cccc(-c3nc4cc(C)cc(C)c4o3)c2C)cc1	1	0.051
CCN(CCNC(=O)C1CCN(c2nnc(-n3cccc3)s2)CC1)c1ccccc1	0.93	-0.74
CCCNC(=O)Cn1cnc2sc(C(=O)Nc3cccc(NC(C)=O)c3)c(C)c2c1=O	1.1	2.8
Cc1ccc(S(=O)(=O)c2cn(CC(=O)Nc3ccc(Cl)cc3)c3ccc(F)cc3c2=O)cc1	0.95	-0.75
Clc1ccc(-c2nc(Nc3ccccc3Cl)nc3ccccc23)cc1	1.3	5.8
Cc1nnc2ccc(N3CCN(C(=O)c4cccc(Cl)c4)CC3)nn12	0.94	-1.1
O=C(NC1CCCCCC1)C1CCC(CNS(=O)(=O)c2cccc3cccnc23)CC1 (configuration not stated)	1	0.17
COc1cccc(NC(=O)C2CCN(S(=O)(=O)c3cccc4nsnc34)CC2)c1	0.95	-1.4
COc1ccccc1CNC(=O)CCNS(=O)(=O)c1ccc(Br)cc1	1.1	1.1
Cc1ccc2c(c1)N(CC(=O)NCCCN1CCCC1)C(=O)CO2	0.99	-0.26
CCCc1c(C(=O)OCC)[nH]c2c1C(=O)CC(c1ccc(OC)c(OC)c1)C2 (configuration not stated)	1	0.55
CCOC(=O)c1cnc2cc(C(F)(F)F)ccc2c1Nc1ccccc1OC	1.1	1.3
CCC(C)NS(=O)(=O)c1ccc2c(c1)CCN2C(=O)C1CC1 (configuration not stated)	0.99	-0.31
NS(=O)(=O)c1ccc(CCNC(=O)c2cc3ccccn3n2)cc1	0.96	-1.1
O=c1ncc(-c2nc3ccccc3o2)c[nH]1	0.96	-1
CC1CCN(C(=O)CN2C(=O)c3ccccc3S2(=O)=O)CC1	1.1	1.4
CCOC(=O)c1ccccc1NC(=O)COc1ccc(C)cc1C(C)(C)C	0.99	-0.012
COc1cccc(-n2cc(C(=O)NCCC(=O)NC3CCCCC3)c3ccccc3c2=O)c1	0.94	-0.71
CCC1Oc2ccc(C)cc2N(CC(=O)NCC2CCCO2)C1=O (configuration not stated)	1.1	0.7
O=C(NC1CC1)c1ccc2c(c1)N(Cc1ccccc1)C(=O)CS2	0.93	-0.92
COc1ccccc1-n1cnc2cc(NS(=O)(=O)c3ccc(Br)cc3)ccc21	0.88	-1.4

Structural class, the compounds so far containing bromine.
SMILES	CBX7 inh	CBX7 inh z-score
CCOC(=O)c1c(CN2CCCC2)n(-c2ccccc2)c2cc(Br)c(OC)cc12	1.1	0.83
CCC(=O)Nc1ccc(Br)cc1-c1nnc(SC)[nH]c1=O	1	1.7
Nc1c(C(=O)c2ccc(Br)cc2)sc2nc(-c3ccccn3)ccc12	1.2	1.4
COc1ccccc1CNC(=O)CCNS(=O)(=O)c1ccc(Br)cc1	1.1	1.1
COc1ccccc1-n1cnc2cc(NS(=O)(=O)c3ccc(Br)cc3)ccc21	0.88	-1.4

Next records follow.
SMILES	CBX7 inh	CBX7 inh z-score
CCc1c2c(nn1-c1cc(Cl)ccc1OC)CCCC2=O	1.1	1.4
Cc1cccc(C(=O)Nc2ccccc2-c2nc3ccccc3s2)c1	1.1	4.1
CCOc1ccc(NC(=O)Cn2cc(S(=O)(=O)c3ccccc3)c(=O)c3cc(CC)ccc32)cc1	0.91	-2.8
O=S(=O)(Nc1ccc2c(c1)OCCO2)c1cnc[nH]1	0.98	-0.28
CC(C)CNC(=O)c1cc(-c2ccc3c(c2)OCO3)on1	1.3	2.3
COc1ccccc1Nc1ncc(C(=O)NCCc2ccc(OC)c(OC)c2)c2ccccc12	1.1	1
Cc1cccc(CCNS(=O)(=O)c2ccc3c(c2)CCN3C(=O)C2CC2)c1	1.1	2.3
COc1ccc(-c2csc(Nc3cccc(C(F)(F)F)c3)n2)cc1F	0.75&0.87	-4&-1.4
Cc1cc(C)cc(Nc2cc(C(=O)NCc3ccccc3)c3ccccc3n2)c1	1.1	4
Cc1ccc(CNC(=O)C2CNc3cc(C)ccc3O2)cc1 (configuration not stated)	0.97	-1.2
CCOCCCNC(=O)C1CCN(C(=O)c2cnn(-c3ccccc3)c2-n2cccc2)CC1	0.95	-0.41
CCOCc1cnc(C)nc1NCC(=O)c1c(C)[nH]c2ccccc12	1.1	1
O=C(Nc1ccccc1F)c1nc2c(nnn2Cc2ccc(C(F)(F)F)cc2)c(=O)[nH]1	0.93	-1.5
CN1CCN(CCCNC(=O)c2cn(C3CCCCC3)c(=O)c3c2c2ccccc2n3C)CC1	1	1.1
COc1ccccc1Nc1cc(C(=O)NCCCN2CCCC2=O)c2ccccc2n1	1	1.3
Cc1ccc(-n2ncc(C(=O)Nc3cc(F)ccc3F)c2C2CCN(C(=O)OC(C)(C)C)CC2)cc1	0.98	-0.82
Cc1ccc(CCn2c(C)c(C)c3ccccc32)cn1	0.89	-5.9
COc1ccccc1-c1c(C)nn2c(NCc3ccccn3)cc(C)nc12	0.39*	-6.6*
Cc1ccc(NS(=O)(=O)c2ccc3c(c2)CCN3C(=O)C2CC2)c(C)c1	0.97	-1
Brc1ccccc1-c1nc2c3c4c(sc3ncn2n1)CCCC4	1	-0.14

Some of the entries so far, with two lines to a compound:
Every second line gives: CBX7 inh, CBX7 inh z-score
- Cc1cccc(C(=O)Nc2ccccc2-c2nc3ccccc3s2)c1
 : 1.1, 4.1
- CCOc1ccc(NC(=O)Cn2cc(S(=O)(=O)c3ccccc3)c(=O)c3cc(CC)ccc32)cc1
 : 0.91, -2.8
- O=S(=O)(Nc1ccc2c(c1)OCCO2)c1cnc[nH]1
 : 0.98, -0.28

Remaining list, next part.
SMILES	CBX7 inh	CBX7 inh z-score
Cc1cc(C)c2oc(-c3cc(NC(=O)c4ccc(F)cc4)ccc3Cl)nc2c1	1.2	2.1
Clc1ccc(Cn2c(COc3ccccc3)nc3ccccc32)cc1	1.5	4.7
CC(C)(C)n1cnc2cc(NCc3ccncc3)ccc21	0.96	-0.33
CC1=Nc2cc(C(=O)NCc3ccccc3Cl)ccc2Sc2ccccc21	0.89	-1.7
C=CCN1C(=O)CSc2ccc(C(=O)NCc3ccc(F)cc3)cc21	1	-0.12
COc1ccccc1C(=O)Nc1ccc2oc(-c3ccc4ccccc4c3)nc2c1	1.1	3.3
CCN1CCN(c2cc(C)c3cc(NC(=O)c4cnccn4)ccc3n2)CC1	1	0.22
CCc1cccc(NS(=O)(=O)c2ccc3[nH]c(=O)c(=O)[nH]c3c2)c1	0.99	-0.017
Cc1ccc2c(c1)C(c1ccccc1)N(C(=O)c1c(F)cccc1F)CC(=O)N2 (configuration not stated)	0.97	-0.042
CC(=O)Nc1ccccc1-c1nc2ccc(C(=O)N3CCN(c4ccccc4)CC3)cc2[nH]c1=O	1	0.92
Cc1ccc2cc(CCNC(=O)CC3CCCCC3)c(=O)[nH]c2c1	1	1.6
COCCN1Cc2cccc(C(=O)Nc3cc(F)ccc3F)c2C1=O	1.1	2.2
O=C(CSc1nnc(-c2ccc3c(c2)OCCO3)o1)NC1CCCCC1	1.2	4.1
CCOc1ccc(S(=O)(=O)N2CCOCC2)cc1-c1nc2c(C(C)(C)C)nn(C)c2c(=O)[nH]1	1.1	0.97
CCCNC(=O)C1CC(c2cccc(OC)c2)=NO1 (configuration not stated)	0.91	-1.2
O=S1(=O)N=C(Nc2ccc(Cl)c(C(F)(F)F)c2)c2ccccc21	1	-0.024
COc1ccc(/C=C\c2onc(C)c2S(=O)(=O)N2CCC(C(=O)NC3CCCC3)CC2)cc1	0.91	-0.2
CCN(CC)C(=O)CCC(=O)Nc1ccc2nc(N3CCN(C)CC3)cc(C)c2c1	0.99	-0.1
Cc1ccc(S(=O)(=O)N2CCCCC2C(=O)N(C)c2ccccc2)cc1 (configuration not stated)	0.91	-1.3
O=C(Nc1nnc(-c2ccc3c(c2)OCO3)s1)c1ccccc1Cl	1.1	0.29
CCC1CCCCN1C(=O)c1cc2c(-c3ccc(OC)c(OC)c3)nn(C)c2s1 (configuration not stated)	1	0.4
O=C(NCc1ccc(Cl)cc1)C1CCN(c2nnc(-n3cccc3)s2)CC1	0.85	-2.5
O=C1CNC(=O)c2c(ncn2Cc2ccccc2)N1	0.85	-1.8
Cc1ccc(Nc2cc(C)c3ccccc3n2)c(C)c1	1.2	2.8
CC1CCc2nc(NC(=O)c3cccc(C(F)(F)F)c3)sc2C1 (configuration not stated)	1.1	1.9
O=C(NCc1ccc2c(c1)OCO2)c1ccc2c(c1)N(Cc1ccc(F)cc1)C(=O)c1ccccc1S2=O (configuration not stated)	0.99	-0.24
CCOc1ccc(CNC(=O)C2c3ccccc3C(=O)N3CCc4ccccc4C23)cc1 (configuration not stated)	1	1
Cc1nn(Cc2ccc(F)cc2)c(C)c1NC(=O)c1cc(-c2ccc(Cl)c(Cl)c2)on1	0.82	-1.8
COc1cccc(-c2nnc(SCC(=O)NCCOc3ccccc3)n2-c2ccccc2)c1	1.2	1.6
CCCCNC(=O)c1cnn2c(C)c(Cc3cccc(Cl)c3)c(C)nc12	1	0.49
O=C(CSCc1cnn(-c2ccccc2)c1-n1cccc1)NC1CCCC1	1	0.27
COc1cc(NC(=O)c2cc(-c3ccc(OC)c(OC)c3)on2)c(OC)cc1Cl	1.2	1.2
O=C(NCc1cccs1)c1cc2nc(-c3cccs3)cc(C(F)(F)F)n2n1	1.1	3.3
CC(C)Cc1cc(C(=O)Nc2ccc(F)c(Cl)c2)no1	1.1	4
COc1ccc(-c2noc(N(C)CC(=O)NCCCN3CCOCC3)n2)cc1	0.99	-0.38
CCc1ccc2nc(N3CCC(C(=O)NCC4CCCO4)CC3)sc2c1 (configuration not stated)	1.1	1.7
COc1cc(NC(=O)C2CCCN(S(=O)(=O)c3cccnc3)C2)cc(OC)c1 (configuration not stated)	0.98	-0.59
Cc1ccc2cc(CCNC(=O)c3c(F)cccc3F)c(=O)[nH]c2c1C	1	0.75
Cc1ccc(Cn2c(C(=O)NCCCN3CCOCC3)cc3sccc32)cc1	0.96	-0.99
CCCCn1c(CCCNC(=O)c2ccc(Cl)cc2)nc2ccccc21	1	0.3

Looked up by compound from above:
SMILES	CBX7 inh	CBX7 inh z-score
O=C(NCc1ccc(Cl)cc1)C1CCN(c2nnc(-n3cccc3)s2)CC1	0.85	-2.5
Cc1ccc2cc(CCNC(=O)c3c(F)cccc3F)c(=O)[nH]c2c1C	1	0.75
O=C(NCc1cccs1)c1cc2nc(-c3cccs3)cc(C(F)(F)F)n2n1	1.1	3.3

The results go on.
SMILES	CBX7 inh	CBX7 inh z-score
CCCC(=O)Nc1ccc(O)c(-c2nc3cc(C)c(C)cc3o2)c1	1.1	1.1
COc1ccc(C(C(=O)NC2CCCCC2)N2CCCC(C)C2)cc1 (configuration not stated)	0.96	-1
COc1ccc(NC(=O)C2(NS(=O)(=O)c3cccc4cccnc34)CCCCC2)cc1OC	1.2	2.2
CCOC(=O)c1cc(-c2ccccc2)n(CCC(=O)N2CCN(C3CCCCC3)CC2)c1C	1.1	1.1
CCCCNC(=O)CCCn1c(=O)[nH]c2ccsc2c1=O	0.87	-0.95
COC(CNC(=O)CSCc1nc(-c2ccc(C)cc2)oc1C)OC	0.96	-0.7
O=C(NC1CCCCC1)C(c1ccccc1)N1CCCCC1 (configuration not stated)	1	-0.18
CCOC(=O)c1[nH]c(C)c(C(=O)NCc2ccc(OC)cc2)c1C	0.98	-0.48
COc1ccc(CC(=O)N2CC(=O)Nc3ccc(Cl)cc3C2c2ccc(F)cc2)cc1OC (configuration not stated)	1.1	0.92
CCOc1ccc(C(=O)Nc2nc3c(OCC)cccc3s2)cc1	1.1	1.6
CCCCOc1ccccc1C1CC(=O)Nc2cc(OCC)c(OCC)cc21 (configuration not stated)	1	0.24
Cc1ccccc1Cn1nc(C)c(NC(=O)c2cc(-c3ccc(F)cc3)on2)c1C	1	0.038
O=C(NC1CCCCCC1)C1c2ccccc2C(=O)N1Cc1ccc(F)cc1Cl (configuration not stated)	1.1	0.23
O=C(CSc1nnc(CNC(=O)c2cccs2)o1)Nc1ccc2c(c1)OCCO2	1	1.1
O=C(NCC1COc2ccccc2O1)C1C2C=CC3(CN(Cc4cccs4)C(=O)C13)O2 (configuration not stated)	1	0.78

These rows are one share of the data (hit frequency here may not be typical).
